Bioassay records (PubChem BioAssay)
NS1 function inh: qHTS Assay for Inhibitors of Influenza NS1 Protein Function; S. cerevisiae slowed by influenza A NS1, growth recovery by OD600; Potency, µM (titrated, usually from 46.1 µM), without a hit: at the top dose activity, positive = more growth; actives 0.4% (n = 270,000); AID 2326, 2010; further: actives are rising curves; nearly all actives have a fitted effect of over 50% in size
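Compounds were scored for reversing the slow growth caused by influenza A NS1 in S. cerevisiae, measured by optical density at 600 nm. Assay medium contained 2% galactose at pH 6.0; NS1-free yeast of the same strain were the positive control.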
RE007 growth inh: qHTS Assay for Inhibitors of the HIV-1 protein Vpr | S. pombe RE007 Vpr strain, BacTiter-Glo ATP luminescence, 24 h; control for the full effect not named in the record | Potency, µM (titrated, usually from 92.2 µM), without a hit: top-dose activity change, negative = less growth | actives 0.21% (n = 360,000); active = well fitted falling curve with a large enough effect; inconclusive = small, poorly fitted or top-dose-only effect; inactive = no such curve, though single readings can be large or run the other way;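 further: on the % scale 0 is the no-effect control and ±100 the full control effect; nearly all actives have a fitted effect of over 50% in size; the assay follows cell death caused by Vpr and the record does not say whether a fall means rescue or toxicity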
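Fission yeast RE007 carrying one integrated HIV-1 vpr copy, seeded at OD 0.01 in PMG+AL medium with 23 nL pinned compound. Grown 24 h at 30 degrees; viability read by BacTiter-Glo luminescence after 5 min.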
Cruzain noTriton: qHTS Assay for Promiscuous and Specific Inhibitors of Cruzain (without detergent); Cruzipain (Trypanosoma cruzi), P25779; actives 2.3% (n = 200,000); Potency, µM, without a hit: max response, negative = inhibition, most hits filed as inhibitors; purified cruzain, Z-FR-AMC fluorescence, no detergent; active means well fitted curve in the direction sought with a large enough effect; inconclusive means small, poorly fitted or top-dose-only effect, or another doubt; inactive means no such curve, though single readings can be large; an effect the other way counts as inactive or inconclusive;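 further: plate controls were enzyme without inhibitor for no effect and buffer without enzyme for full effect; nearly all actives have a fitted effect of over 40% in size; top concentration of the series not given in the record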
Target sequence (P25779 123-467 limits assumed): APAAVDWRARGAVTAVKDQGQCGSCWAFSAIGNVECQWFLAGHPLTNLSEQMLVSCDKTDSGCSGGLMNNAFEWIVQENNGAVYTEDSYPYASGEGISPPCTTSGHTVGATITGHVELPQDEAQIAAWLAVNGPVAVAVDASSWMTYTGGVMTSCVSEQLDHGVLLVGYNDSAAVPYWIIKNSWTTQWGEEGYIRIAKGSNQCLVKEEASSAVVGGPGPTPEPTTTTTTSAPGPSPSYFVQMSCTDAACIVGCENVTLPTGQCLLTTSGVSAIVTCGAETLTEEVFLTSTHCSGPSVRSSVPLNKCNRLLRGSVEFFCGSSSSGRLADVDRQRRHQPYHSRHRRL
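Purified cruzain at 1.5 nM, pre-incubated 15 min with compound at room temperature in 100 mM sodium acetate pH 5.5, 5 mM DTT, 0.00005% Triton X-100. Reaction started with 2 uM Z-FR-AMC; AMC fluorescence increase over 60 s gives rate.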
LASV entry inh: qHTS for Inhibitors of binding or entry into cells for Lassa Virus; Lassa virus pseudotype entry inhibition, cell reporter; control for the full effect not named in the record; Potency, µM (series often up to 37.9 µM), for inactives: top-dose activity change, negative = inhibition, most hits filed as inhibitors; actives 1.2% (n = 300,000); AID 540256, 2011; active means well fitted inhibition curve with a large enough effect; inconclusive means small, poorly fitted or top-dose-only effect, or effect the other way; inactive means flat fitted curve, though single readings scatter; tested in HEK293 cells; further: on the % scale 0 is the no-effect control and ±100 the full control effect; nearly all actives have a fitted effect of over 50% in size; luciferase read-out
StopGo reporter: High Throughput Screening for Foot and Mouth Disease Virus Antivirals; human cells with a luciferase reporter of 2A StopGo recoding; control for the full effect not named in the record; Potency, µM (series often up to 57.9 µM), for inactives: top-dose signal change, negative = less light; actives 1.2% (n = 410,000); AID 1159524, 2015; active = well fitted falling curve with a large enough effect; inconclusive = small, poorly fitted or top-dose-only effect; inactive = no such curve, though single readings can be large or run the other way; tested in HEK293T cells; further: on the % scale 0 is the no-effect control and ±100 the full control effect; nearly all actives have a fitted effect of over 45% in size; luciferase light after 4 h
SARS PLP yeast: qHTS of Yeast-based Assay for SARS-CoV PLP; S. cerevisiae expressing SARS-CoV PLpro, growth rescue; control for the full effect not named in the record; Potency, µM (titrated, usually from 32.9 µM), for inactives: at the top dose activity, positive = growth rescue; actives 0.19% (n = 330,000); AID 485353, 2010; further: 0% is about no effect; nearly all actives have a fitted effect of over 55% in size; growth read by luminescence after 48 h
Marburg entry inh: qHTS for inhibitors of binding or entry into cells for Marburg Virus; Marburg virus pseudotyped entry inhibition, cell reporter; control for the full effect not named in the record; about a third of the inactives were read at about 46 µM; Potency, µM (doses to about 37.8 µM), inactives show at the highest dose activity change, negative = inhibition, most hits filed as inhibitors; actives 1.8% (n = 300,000); active = well fitted inhibition curve with a large enough effect; inconclusive = small, poorly fitted or top-dose-only effect, or effect the other way; inactive = flat fitted curve, though single readings scatter; tested in HEK293 cells; about a fifth of its hits are not listed in these tables; further: on the % scale 0 is the no-effect control and ±100 the full control effect; luciferase read-out
Cruzain Triton: qHTS Assay for Promiscuous and Specific Inhibitors of Cruzain (with detergent). Cruzipain (Trypanosoma cruzi), P25779. purified cruzain, Z-FR-AMC fluorescence, 0.01% Triton. Potency, µM, for the others: max response, negative = inhibition, actives largely listed as inhibitors. actives 0.43% (n = 200,000); active means well fitted curve in the direction sought with a large enough effect; inconclusive means small, poorly fitted or top-dose-only effect, or another doubt; inactive means no such curve, though single readings can be large; an effect the other way counts as inactive or inconclusive;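 further: plate controls were neutral wells for no effect and buffer without enzyme for full effect; nearly all actives have a fitted effect of over 40% in size; top concentration of the series not given in the record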
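Cysteine protease activity tested under reducing, mildly acidic conditions (100 mM sodium acetate pH 5.5, 5 mM DTT) plus 0.01% Triton X-100. Cruzain 1.5 nM; substrate Z-FR-AMC 2 uM; 15 min compound preincubation at room temperature.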
* hit, by the source's call; ? = inconclusive; nt = not tested or not shown; & = joins results of further samples; [ ] = remark or other dose. Unless noted, the call rests on the fitted dose curve; in most records, active means well fitted rising curve with a large enough effect; inconclusive means small, poorly fitted or top-dose-only effect; inactive means no such curve, though single readings can be large or run the other way. Potency means the concentration at half of the fitted maximal effect. Rows were taken by chance; any-hit rate near 4.6%.

mol	NS1 function inh	RE007 growth inh	Cruzain noTriton	LASV entry inh	StopGo reporter	SARS PLP yeast	Marburg entry inh	Cruzain Triton
CCOP(=O)(c1ccccc1)C(O)c1ccc([N+](=O)[O-])cc1 (stereo not drawn)	11%	9%	nt	?	2%	2%	-1%	nt
CCNc1[nH]c(=O)n(C)c(=O)c1N=O	0%	-5%	3%	-2%	-7%	3%	?	0.0%
Cc1ccc(-c2cc(=O)c3ccc(Cl)cc3[nH]2)cc1	3%	24%	-6%	nt	-5%	1%	nt	-0.4%
COc1ccc(CCNC(=O)CCC(=O)NC2CCCCC2)cc1OC	0%	13%	nt	nt	9%	3%	nt	nt
CCOc1ccc(-c2cc(CCCC(=O)NCCc3ccccc3)no2)cc1	5%	-16%	9%	-12%	-10%	6%	-6%	6.7%
CCSc1nnc(NC(=O)[C@@H](NC(=O)c2ccccc2F)C(C)C)s1	1%	3%	nt	0%	-4%	-2%	10%[46.1 µM]	nt
Cc1ccc(OCc2cc(C(=O)NC3CCOC3)no2)cc1C (stereo not drawn)	-1%	2%	nt	nt	30%[activator]	-2%	nt	nt
Cc1cccc(CCNC(=O)c2cc3c(=O)[nH]c4ccc(C)cc4c3s2)c1	nt	nt	10%	nt	8%	nt	6%[46.1 µM]	-1.1%
CCN(CC#CCC1(O)c2ccccc2-c2ccccc21)CCO	-1%	8%	0%	9%	nt	-3%	17%	3.2%
CCOc1ccc(CCNC(=O)CSc2nnnn2C)cc1OCC	nt	1%	nt	-4%[46.1 µM]	8%	-1%	14%[46.1 µM]	nt
O=c1c2ccccc2nc(SCc2nnc(-c3ccccc3Br)o2)n1-c1ccccc1	-16%	5%	32µM*	?	nt	2%	-15%	-1.3%
c1ccc(CN=C(NCc2ccccc2)NCc2ccccc2)cc1	nt	-10%	nt	?	?	nt	?	nt
Cc1nc2nc(CNC(=O)c3cccc(F)c3)nn2c(C)c1CCC(=O)Nc1cccc(Cl)c1	nt	nt	?	?	-20%	nt	9%[46.1 µM]	-6.8%
CCOc1c(Cl)cc(CNC(C)(C)CC(C)(C)C)cc1OC	-6%	7%	0%	?	-4%	1%	?	6.0%
COCCN1CC(C(=O)NCc2ncccc2C)CCC1=O (stereo not drawn)	2%	1%	nt	nt	2%	-9%	nt	nt
O=C(CN(C1CCCCC1)S(=O)(=O)c1ccccc1)NCc1cccnc1	0%	4%	-12%	-4%	15%	-14%	-4%	-1.0%
COc1ccccc1OCC(=O)N(Cc1cccs1)C1CCS(=O)(=O)C1 (stereo not drawn)	nt	nt	-11%	-19%[46.1 µM]	3%	nt	-3%[46.1 µM]	-3.1%
Cc1cc(C)c(S(=O)(=O)N2CCCC(C(=O)NC3CCCC3)C2)c(C)c1 (stereo not drawn)	-11%	-17%	nt	-9%	-26%	8%	-25%[46.1 µM]	nt
Oc1c(Cl)cc(Cl)cc1CN1CCN(Cc2ccccc2)CC1	-14%	6%	-4%	14%	-27%	-4%	-21%	1.3%
CCOC(=O)C1CCCN(Cc2ccccc2C)C1 (stereo not drawn)	1%	-10%	1%	1%	-10%	-1%	-1%	1.5%
CCOC(=O)c1cccc(NC(=O)C2CCCN(S(=O)(=O)c3cc(Br)cc4c3N(C(=O)CC)CC4)C2)c1 (stereo not drawn)	nt	nt	-13%	5%[46.1 µM]	-11%	nt	3%[46.1 µM]	-3.3%
O=C(Cc1ccccc1)N[C@@H](Cc1ccccc1)c1nc2ccccc2[nH]1	-4%	9%	-2%	0%	?	-4%	?	-6.2%
Cc1ccc(CNC(=O)C2CCC(=O)N(CC3CCCCC3)C2)o1 (stereo not drawn)	20%	-25%	nt	?	-10%	16%	1%	nt
CCCC(CCC)C(=O)Nc1ccc2c(c1)N(C(=O)CCN1CCN(C)CC1)c1ccccc1CC2	-1%	2%	nt	-1%	-18%	1%	11µM*	nt
COc1cccc(/C=C(\C#N)c2nc3ccc(C)cc3[nH]2)c1	nt	nt	?	-25%[46.1 µM]	-17%	nt	-11%[46.1 µM]	-2.0%
Cc1cc(C)c(C(=O)Nc2ccccc2)c(SCC(=O)Nc2ccc(Br)cc2C)n1	nt	nt	5%	-18%[46.1 µM]	-11%	nt	?	-0.4%
O/N=C1/CC/C(=N\O)c2nn(-c3ccccc3)nc21	-7%	6%	-7%	19%	13%	-10%	17%	-0.9%
COc1ccc(CC(=O)N(C)CC(=O)Nc2ccccc2SC)cc1	-19%	5%	nt	9%	-1%	2%	-22%[46.1 µM]	nt
Cc1cccc(NC(=O)c2ccc(-c3ccccc3[N+](=O)[O-])o2)c1	2%	-17%	nt	nt	1%	-3%	14%[46.1 µM]	nt
O=C(O)c1ccc(CNCc2cccc(Oc3ccccc3)c2)cc1	7%	-1%	nt	nt	-8%	1%	nt	nt
CCn1cc(C(=O)OC)c(=O)c2ccc(C)nc21	nt	14%	nt	1%	1%	-1%	6%[46.1 µM]	nt
COc1ccc(N2C(=O)CC(N3CCN(S(=O)(=O)c4c(F)cccc4F)CC3)C2=O)cc1OC (stereo not drawn)	0%	-4%	?	2%	8%	-2%	19%&19%	-1.6%
CN1CCc2c(C#N)c(N3CCCCC3)nc(NCc3ccccc3)c2C1	-1%	-8%	-10%	?	-24%	-3%	?	-5.3%
Cc1ccc(C(=O)NCCSc2ccc(Cl)cc2)cc1S(=O)(=O)Nc1ccccc1	?	-11%	1%	?	nt	-6%	?	-0.9%
CC1CC(=O)N(c2ccc(NCCc3ccc(O)cc3)c([N+](=O)[O-])c2)C1=O (stereo not drawn)	nt	0%	nt	?	?	-2%	-22%[46.1 µM]	nt
Cn1cc(/C=C(\C#N)C(=O)Nc2ncc(Cc3cccc(Cl)c3)s2)c2ccccc21	-9%	nt	7.9µM*	nt	nt	17%	-3%	-6.3%
CCOc1cc(C)c(S(=O)(=O)Nc2ccc(Cl)cn2)cc1C	-37%	16%	-6%	-10%	52%[activator]	1%	-9%	-8.0%
CN(C)/C=N/C1=C(C#N)C(c2ccc(Br)cc2)c2ccc3ccccc3c2O1 (stereo not drawn)	3%	1%	nt	?	-7%	3%	?	nt
CCc1cc(=O)oc2cc(C)cc(OCC(=O)N3CCC(C(=O)O)(c4ccccc4)CC3)c12	-1%	-4%	nt	nt	-21%	5%	nt	nt
CC1(C)C2CCC1(C)C(OC(=O)c1ccccc1C(=O)O)C2 (stereo not drawn)	1%	22%	nt	16%	8%	0%	6%[46.1 µM]	nt
COc1ccc(C(=O)Nc2cccc(C(=O)N3CCCCC3)c2)cc1	5%	-29%	nt	-3%	1%	7%	27%	nt
CC(C)(COC(=O)C(c1ccccc1)c1ccccc1)CN1CCOCC1	nt	-5%	nt	?	-18%	nt	?	nt
Cc1ccc(CN2CCN(Cc3c(C)nn(-c4ccc(F)cc4)c3C)CC2CCO)o1 (stereo not drawn)	0%	1%	nt	-7%[46.1 µM]	-9%	1%	-4%[46.1 µM]	nt
C=CCOC(=O)C1=C(C)OC(N)=C(C#N)C1c1ccc(OC)c(CSc2ccccn2)c1 (stereo not drawn)	3%	15%	6%	nt	6%	7%	2%	-11%
CCCNC(=O)c1ccc(COc2ccc(CCC)cc2OC)o1	-6%	-3%	nt	6.3µM*	?	-3%	0%[46.1 µM]	nt
COc1ccc(C(=O)/C=C\c2ccc(NC(=O)c3cccs3)cc2)cc1	-4%	-12%	-24%	?	?	?	-25%	-1.6%
O=C(NCCN1C(=O)S/C(=C\c2cccs2)C1=O)[C@H](Cc1ccccc1)N1C(=O)c2ccccc2C1=O	17%	nt	?	-4%	nt	-11%	0%	-3.3%
CC(=O)C1=C(c2cccc([N+](=O)[O-])c2)N(C(C)=O)n2c(nnc2-c2ccc(C)cc2)S1	nt	nt	?	20%[46.1 µM]	-15%	nt	nt	-3.1%
Cc1ccc(S(=O)(=O)N2CCCCC2)cc1NC(=O)c1cnccn1	nt	5%	nt	-3%	-7%	-5%	2%	nt
CCCC(=O)NC1CCc2cc(OC)c(OC)c(OC)c2-c2ccc(OC)c(=O)cc21 (stereo not drawn)	nt	2%	nt	?	-6%	nt	?	nt
COc1ccc(/C=C(/NC(=O)c2ccccc2)c2nc3ccc(Cl)cc3[nH]2)cc1OC	?	-3%	25%	?	?	17%	?	-10%
CC(Oc1ccccc1F)C(=O)NNC(=O)c1ccc(F)c(S(=O)(=O)N2CCOCC2)c1 (stereo not drawn)	-9%	14%	nt	-19%	-19%	3%	-20%	nt
Cc1cccc(C)c1NC(=O)CNC(=O)C1CCCN(C(=O)c2ccc(Cl)cc2)C1 (stereo not drawn)	nt	0%	nt	1%	-20%	3%	8%	nt
Cc1cc(=O)oc2cc(OCCSc3nnc(-c4ccccc4)o3)ccc12	4%	-5%	3%	8%	3%	-25%	-32%	-7.7%
CCCc1nnc(NC(=O)CCC(=O)N2CCN(S(=O)(=O)c3ccc(C)cc3)CC2)s1	11%	12%	nt	-14%	-1%	1%	7%[46.1 µM]	nt
Cc1ccc(C)c(-n2nnnc2SCC(=O)NNC(=O)c2ccco2)c1	7%	-12%	nt	nt	-5%	-1%	nt	nt
